# Vaccinia Venus = vaccinia inhibition (Venus reporter) | Vaccinia virus Venus reporter expression, fluorescence | Potency, µM (doses to about 36.5 µM), for the others: at the top dose activity change, negative = inhibition, most hits filed as inhibitors | actives 0.46% (n = 330,000); active means well fitted inhibition curve with a large enough effect; inconclusive means small, poorly fitted or top-dose-only effect; inactive means no such curve, though single readings can be large or run the other way; tested in A549 cells; note: nearly all actives have a fitted effect of over 30% in size; inactives centre near -10
# VACV mCherry inh = vaccinia inhibition (mCherry reporter) | Potency, µM (top dose mostly 36.5 µM), inactives show at the top dose activity change, negative = inhibition, hits mostly inhibitors | actives 0.63% (n = 310,000) | AID 720579 | Vaccinia virus mCherry reporter infection, fluorescence; about a quarter of the inactives have no number; active = well fitted inhibition curve with a large enough effect; inconclusive = small, poorly fitted or top-dose-only effect; inactive = no such curve, though single readings can be large or run the other way; tested in A549 cells; note: nearly all actives have a fitted effect of over 35% in size; inactives centre near -10
# The depositor's hits bear a star; i = inactive; ? = inconclusive; . = no result given; & = joins results of further samples; [ ] = another dose, or the depositor's remark. % is set by controls: 0 for no effect and ±100 for the full control effect; potency is the fitted concentration of half-maximal effect.
SMILES,Vaccinia Venus,VACV mCherry inh
Cc1sc(NC(=O)CN2CCOCC2)nc1-c1ccc2c(c1)CCN2S(=O)(=O)c1ccccc1,?,?
CCOC(=O)C(C)Sc1nnc(NC(=O)c2ccc3c(c2)OCO3)s1 (stereo not drawn),11%,-11%
C/C(=N/NC(=O)CNC(=O)c1ccccn1)c1cccc([N+](=O)[O-])c1,0%,-4%
COc1cccc(C#Cc2c(C=O)n(C)c3ccccc23)c1,?,?
CCOc1ccc(CNC(=O)Cc2ccc(NC(=O)N3CCSc4ncccc43)cc2)cc1,-8%,-8%
O=C(Nc1ccc(Cl)c(Cl)c1)c1ccncc1,-25%,-16%
O=C1CC2(CCN(C(=O)c3cccc(Cl)c3)CC2)Oc2ccccc21,-11%,-2%
N#Cc1c(NC(=O)CSc2nnnn2C2CCCC2)sc2c1CCCC2,-3%,-16%
COc1ccc(-c2cc(=O)c3c(O)cc(O)c(-c4cc(-c5cc(=O)c6c(O)cc(O)cc6o5)ccc4OC)c3o2)cc1,?,?
Cc1cc(C)nc(S/C=C/C(=O)c2ccccc2F)n1,-12%,i
C=CCN(C(=O)CSc1nc2c(sc3ccccc32)c(=O)n1CCN(CC)CC)c1ccccc1,?,-28%
Clc1cccc2c1CCN(Cc1nc(-c3cnccn3)no1)C2,-6%,-8%
Cc1cccc(-n2c(=O)c3c(c4cc(C)ccc4n3C)n(CC(=O)Nc3ccc(C)c(C)c3)c2=O)c1,?,?
O=C1c2cccc(OCc3ccc(F)cc3)c2CCN1Cc1ccccc1,-19%,-24%
O=c1c2c([nH]c3ccccc13)CCCC2,-14%,.
O=C(CC1(O)C(=O)N(Cc2ccccc2)c2ccccc21)c1ccncc1 (stereo not drawn),-2%,-10%[1.46 µM]
CN(C)S(=O)(=O)c1ccc2c(c1)nc(CCC(=O)NCCc1ccc(Cl)cc1)n2C,-17%,-17%
O=C(CCN1C(=O)/C(=C\c2cccc(Br)c2)SC1=S)NCCCN1CCOCC1,107%[activator],87%[activator]
CCCNC(=O)N1CCN(S(C)(=O)=O)CC1,7%,-1%
Cc1ccc(NC(=O)CN(C)C(=O)COc2cc(F)ccc2[N+](=O)[O-])cc1,0%,2%

# 16 entries from above, ordered by number of heavy atoms, largest number first:
SMILES,Vaccinia Venus,VACV mCherry inh
COc1ccc(-c2cc(=O)c3c(O)cc(O)c(-c4cc(-c5cc(=O)c6c(O)cc(O)cc6o5)ccc4OC)c3o2)cc1,?,?
Cc1cccc(-n2c(=O)c3c(c4cc(C)ccc4n3C)n(CC(=O)Nc3ccc(C)c(C)c3)c2=O)c1,?,?
C=CCN(C(=O)CSc1nc2c(sc3ccccc32)c(=O)n1CCN(CC)CC)c1ccccc1,?,-28%
Cc1sc(NC(=O)CN2CCOCC2)nc1-c1ccc2c(c1)CCN2S(=O)(=O)c1ccccc1,?,?
CCOc1ccc(CNC(=O)Cc2ccc(NC(=O)N3CCSc4ncccc43)cc2)cc1,-8%,-8%
CN(C)S(=O)(=O)c1ccc2c(c1)nc(CCC(=O)NCCc1ccc(Cl)cc1)n2C,-17%,-17%
O=C(CCN1C(=O)/C(=C\c2cccc(Br)c2)SC1=S)NCCCN1CCOCC1,107%[activator],87%[activator]
Cc1ccc(NC(=O)CN(C)C(=O)COc2cc(F)ccc2[N+](=O)[O-])cc1,0%,2%
N#Cc1c(NC(=O)CSc2nnnn2C2CCCC2)sc2c1CCCC2,-3%,-16%
CCOC(=O)C(C)Sc1nnc(NC(=O)c2ccc3c(c2)OCO3)s1 (stereo not drawn),11%,-11%
Clc1cccc2c1CCN(Cc1nc(-c3cnccn3)no1)C2,-6%,-8%
COc1cccc(C#Cc2c(C=O)n(C)c3ccccc23)c1,?,?
Cc1cc(C)nc(S/C=C/C(=O)c2ccccc2F)n1,-12%,i
O=C(Nc1ccc(Cl)c(Cl)c1)c1ccncc1,-25%,-16%
CCCNC(=O)N1CCN(S(C)(=O)=O)CC1,7%,-1%
O=c1c2c([nH]c3ccccc13)CCCC2,-14%,.

# (cont.)
SMILES,Vaccinia Venus,VACV mCherry inh
CNC(=O)c1ccsc1NC(=O)c1ccc2c(c1)CCCC2,?,-28%
O=C(Nc1ccccn1)c1cc(-n2cnnc2)ccc1Cl,-26%,.
O=C(N/N=C/c1cc(Br)c(O)c(Br)c1)c1cccc(C(F)(F)F)c1,-7%,-13%
O=C(O)c1ccc(/C=N/NC(=O)c2cc3ccccc3cc2O)cc1,-10%,i
CCc1ccc(C(=O)NC(CCSC)C(=O)O)cc1 (stereo not drawn),-7%,-16%
COc1ccc(C(=O)O)cc1S(=O)(=O)NC1CCN(Cc2ccccc2)CC1,-10%,-14%
COc1ccc(CCNC(=O)CCS(=O)(=O)c2ccc3c(c2)oc(=O)n3C)cc1OC,-4%&-17%,-14%
COc1ccc(-c2cc(C(F)(F)F)n3ncc(C(=O)N(C)Cc4ccccc4)c3n2)cc1,-22%,i
CCn1c(CN2CCN(C)CC2)nc2ccccc21,-5%,1%
CC(=O)Nc1ccc(SCC(=O)c2cc(C)n(CC(F)(F)F)c2C)cc1,-19%,.
Cc1cc(C(F)(F)F)nc(NNc2nc(C)cc(C(F)(F)F)n2)n1,-3%,-6%
CC1(C(=O)Nc2cccc(OC(F)(F)F)c2)Cc2c(-c3cccc(C(F)(F)F)c3)ccnc2O1 (stereo not drawn),1%,4%
CC(C)(C)NC(=O)CN(CCc1ccccc1)C(=O)c1csnn1,-4%,-7%
CC1=C(C(=O)N2CCCCCC2)CC(CC(=O)NCCCN(C)C)C(=O)N1Cc1ccc(F)cc1 (stereo not drawn),1%,-11%
CCCCN1C(=O)C(=O)N(CC(=O)N2N=C3/C(=C/c4ccco4)CCCC3C2c2ccco2)C1=O (stereo not drawn),-10%,-15%
CC(=O)c1c(C)[nH]c(C(=O)CN2C(=O)NC3(CCCCC3)C2=O)c1C,12%,9%
Cc1ccc(NC(=O)CCNC(=O)Cn2ccc3ccccc3c2=O)cc1F,-11%,i
CSc1nc(N)nc(SCCS(=O)(=O)c2ccc(Cl)cc2)c1C#N,5.6µM*,2.5µM*
Cc1sc2ncnc(N3CCN(S(=O)(=O)c4ccc(Br)cc4)CC3)c2c1C,-14%,i
COc1cccc(CC(=O)Nc2cc(S(=O)(=O)N3CCOCC3)ccc2N2CCOCC2)c1,-8%,-6%
Cc1ccc(S(=O)(=O)N2CCN(Cc3ccccc3)CC2)c(C)c1N(C)S(=O)(=O)c1ccccc1,-19%,-25%
COCCN(C(=O)c1cccc(OC)c1)c1nnc(-c2ccncc2)s1,-6%,-16%
CC(C)CCNC(=O)C12CN(Cc3ccccc3)CC1C(c1cccc([N+](=O)[O-])c1)=NO2 (stereo not drawn),-23%,-21%
COC(=O)C1=C(c2ccc(OCc3ccccc3)cc2)C[C@@H]2CC[C@H]1N2C(=O)NCc1ccc(OC)c(OC)c1,?,?
O=c1[nH]c2c(s1)C(c1ccco1)C1C3CCC(C3)C1S2 (stereo not drawn),-2%,.
Cc1c(-c2ccccc2Br)nc2ccccc2c1C(=O)O,7%,-7%
CN(C)c1ccc(-c2ccnc3c2CC(C)(C(=O)NCc2cccc(Cl)c2)O3)cc1 (stereo not drawn),-14%,9%
O=C(O)CCN(CCC(=O)O)c1ccc(/C=C/c2ccnc3ccccc23)cc1,114%[activator],42%[activator]
N#Cc1cn(CC(=O)N2CCCc3ccccc32)c2ccccc12,-20%,.
CCNc1nc(OC)nc(Oc2ccc(C(=O)OC)cc2)n1,-12%,-12%
N#Cc1ccccc1N/C=C/C(=O)c1ccc(Cl)cc1,?,-4%
Cc1ccc(C(=O)NNC(=O)c2ccccc2OCc2c(C)noc2C)cc1,-1%,-7%
CCOC(=O)c1ccc(NC(=O)Cn2ncc(Cl)c(Cl)c2=O)cc1,?,?
Cc1ccc2c(CC(=O)N(Cc3cccc(Cl)c3)C3CCS(=O)(=O)C3)coc2c1 (stereo not drawn),-8%,-12%
O=C(NCc1cccc(Br)c1)C1CCCCN1S(=O)(=O)c1ccc(F)cc1 (stereo not drawn),4%,-10%
COc1ccc(C(CNC(=O)c2ccco2)N2CCCCC2)cc1 (stereo not drawn),4%,1%
CCC12CN3CC(CC)(CN(C1)C3c1cccnc1)C2=O (stereo not drawn),-11%,.
O=c1c2sc3ccccc3c2n(Cc2ccc(F)cc2Cl)c(=O)n1Cc1ccccc1,-9%,-2%
Cc1sc2ncn(CC(=O)N3CCOCC3)c(=O)c2c1-c1ccccc1,-14%,-10%
CSc1nc(Cl)cc(=O)[nH]1,-6%,i
O=C(NC(c1ccccc1)C(Cl)(Cl)Cl)c1ccccc1 (stereo not drawn),-6%,-14%
CO/N=C/c1ccc(Oc2ccc(C)cc2)nc1,-18%,.
COC(=O)c1c[nH]n2c(=O)c(Cl)c(C)nc12,-5%,-15%
CC(=O)NC(Cc1ccccc1)C(=O)NC1CCN(C(=O)NCc2ccccc2)CC1 (stereo not drawn),1%,10%
CCOc1ccc(CNC(=O)Cn2nc(N3CCN(c4ccccc4)CC3)ccc2=O)cc1,-4%,-7%
O=C(N/N=C/c1cccnc1)c1cc2c(ccc3ccccc32)o1,-30%,-12%[1.46 µM]
CCC[C@@H](CN1CCC[C@H]1CN1C(N)=NC[C@@H]1Cc1ccccc1)N1C[C@@H]([C@H](C)CC)N(CCc2ccc(Cl)c(Cl)c2)C1=N,3%,-13%
C#CC(=O)CCC1CCCN1C(=O)OC(C)(C)C (stereo not drawn),3%,25%
CC(C)(C)c1ccc(NC(=O)CNC2CCCc3ccccc32)cc1 (stereo not drawn),2%,-30%
COc1ccc(S(=O)(=O)N2CCCC(C(=O)N3CCN(c4ccccc4)CC3)C2)cc1Cl (stereo not drawn),-18%,-12%

# Further structures follow:
SMILES,Vaccinia Venus,VACV mCherry inh
CCc1cc2c(=O)c(-c3nc(C)cs3)coc2cc1O,-5%,i
CC(C)(C)c1cc(/C=N/O)cc(C(C)(C)C)c1O,-20%,-7%
Cn1cc(C(=O)c2cccc(Cl)c2Cl)cc1C#N,-6%,-8%
O=C(Nc1ccc(Cl)cc1)c1ccc(OCC2CCCO2)cc1 (stereo not drawn),-13%,-23%
CC1CC(=O)Nc2ccccc2N1C(=O)Cn1cnc2ccc(Br)cc2c1=O (stereo not drawn),-15%,-18%
N#Cc1nc(Cc2ccccc2)oc1NCc1cccnc1,-17%,.
CCCCNC(=O)COC(=O)c1c2c(nc3ccccc13)/C(=C/c1cccs1)CC2,?,-13%
COc1ccc(C(c2nnnn2CC2CCCO2)N2CCN(c3ccc(F)cc3)CC2)cc1 (stereo not drawn),-3%,-11%
COCCNc1oc(/C=C/c2ccc(F)cc2)nc1C#N,-7%,-13%
C#CCOCCOCCOCCNc1nc(N2CCOCC2)nc(N2CCN(C(=O)[C@H](CC(N)=O)n3cc(C(N)[C@@H](C)CC)nn3)CC2)n1 (stereo partly drawn),-2%,i
C=CCn1c(O)c(N=O)c2cc(C)ccc21,-28%,-14%
O=S(N1CCCCCC1)C12CC3CC(CC(C3)C1)C2 (stereo not drawn),-12%,.
CCC(Oc1ccccc1-c1nnc(-c2ccccc2)o1)C(=O)Nc1ccc(C(C)=O)cc1 (stereo not drawn),-14%,-1%
O=C(OCc1ccccc1)N1CCC2CC1c1ccc(/C=C/CCCCl)cc12 (stereo not drawn),-17%,-8%
Cc1cc(NC(=O)Nc2ccc3c(ccn3C)c2)sn1,-22%,-21%
CCCN1C(=O)C2(SC(NC(C)=O)=NN2C(C)=O)c2cc(C)cc(C)c21 (stereo not drawn),-5%,-5%
COc1ccc(Cn2c(=O)c3oc4ccccc4c3n(CC(=O)Nc3c(C)cccc3C)c2=O)cc1,-12%,-9%
CC1(C)CC(=O)NC=C(c2ccccc2)C1,-12%,.
O=C(Nc1ccccc1F)c1ccccc1-c1ccccc1,-12%,i
CC12CCC(=O)C=C1CCC1C2CCC2(C)C1CCC2(O)CC#N (stereo not drawn),-8%,-12%
Cc1ccc(C(C(=O)NC2CCCCC2)N(C(=O)Cc2c[nH]c3ccccc23)c2ccccc2C)o1 (stereo not drawn),?,?
Oc1cccc2c(NC(=S)Nc3ccc(OC(F)F)cc3)cccc12,4%,?
COc1ccc(C(=O)Nc2ccc(N3CCCC3)cc2)cc1OC,-17%,-26%
Cc1cc(C(=O)N/N=C/c2ccc(-c3cccc(Cl)c3)o2)n[nH]1,-11%,i
CCc1ccc(NC(=O)Cn2nnc(C(=O)NCc3ccc(C)cc3)c2N)cc1,-4%,-9%
CCN(CC)S(=O)(=O)c1ccc(C(=O)NC2CC(=O)N(c3ccc4c(c3)OCCO4)C2)cc1 (stereo not drawn),-14%,-6%
O=C(CCCOc1ccc(Cl)cc1Cl)N/N=C/c1ccccc1,?,-20%
O=C(Nc1cccc(NC(=O)c2ccc3c(c2)OCO3)c1)c1ccccc1,-7%,-15%
O=C(CSc1n[nH]c(-c2ccccc2)n1)NCc1cccc(C(=O)O)c1,-4%,i
CC(=O)c1ccc(N2CCN(C(=O)CCCn3c(=O)[nH]c4ccccc4c3=O)CC2)cc1,1%,-4%
CC(C)[C@H]1C=C(C(=O)O)O[C@@H](OCCCCO)C1,-7%,-13%
COc1ccc(F)cc1S(=O)(=O)n1nc(C)cc1C,-12%,-3%
CCCC(C(=O)NCc1ccco1)N(Cc1ccco1)C(=O)CNS(=O)(=O)c1ccccc1 (stereo not drawn),-3%,-18%

# High-throughput results: PubChem, National Center for Advancing Translational Sciences (NCATS)
